Arbovirus anti: antivirals against arbovirus infection, primary screen, cell-based, full library, 10K replicate subset | arbovirus infection cell-based antiviral screen | inhibition, % at 10 µM | 200,000 tested, 0.37% active | AID 1251, 2008;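 active = inhibition from about 30%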;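 also: bluetongue infection of BSR cells; cell survival read as ATP light after 72 h; 0% = infected wells without compound and 100% = uninfected wells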
Mtb betalactam: beta-lactam sensitization of Mtb H37Rv, H37Rv; inhibition, % at 25 µM; AID 434955, 2010; 330,000 tested, 0.27% active; M. tuberculosis H37Rv growth with meropenem, percent inhibition; hits of this screen are not shown here;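 active = about 74% or more and at least 40 points above the plate without the antibiotic, then above 30% in a dose series; inconclusive = first-round hits that could not be retested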;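 also: growth measured after seven days incubation then overnight dye step; 0% = bacteria only wells and 100% = bacteria with antibiotic; twin plates without the antibiotic show which effects depend on it; some results filed as inactive read as strong as hits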
Mtb growth: M. tuberculosis H37Rv growth inhibitors, H37Rv strain (AID 1626). M. tuberculosis H37Rv growth inhibition; higher % means a stronger effect. 220,000 tested, 0.95% active. inhibition, % at 10 µM, or IC50 in µM where a hit was titrated;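 active = confirmed in a dose series; inconclusive = inhibition above 80% but not taken into the dose series; inactive = below 80% or under 30% at every dose of the series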;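 also: bacteria incubated seven days before Alamar blue readout; 0% = bacteria only wells and 100% = bacteria with antibiotic wells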
RecA intein inh: Mtb RecA intein splicing inhibitors, primary screen, biochemical, fluorescence, HTS. Protein RecA (Mycobacterium tuberculosis (strain ATCC 25618 / H37Rv)), P9WHJ3. cell-free RecA intein splicing. inhibition, %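 (about 9 µM by stock and volumes)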. 290,000 tested, 0.75% active; in the data active = inhibition above about 30%; inconclusive = no clear call, values can overlap the other calls;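 also: 0% = vehicle wells and 100% = reference inhibitor control wells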
Target sequence (P9WHJ3 whole entry, looked up): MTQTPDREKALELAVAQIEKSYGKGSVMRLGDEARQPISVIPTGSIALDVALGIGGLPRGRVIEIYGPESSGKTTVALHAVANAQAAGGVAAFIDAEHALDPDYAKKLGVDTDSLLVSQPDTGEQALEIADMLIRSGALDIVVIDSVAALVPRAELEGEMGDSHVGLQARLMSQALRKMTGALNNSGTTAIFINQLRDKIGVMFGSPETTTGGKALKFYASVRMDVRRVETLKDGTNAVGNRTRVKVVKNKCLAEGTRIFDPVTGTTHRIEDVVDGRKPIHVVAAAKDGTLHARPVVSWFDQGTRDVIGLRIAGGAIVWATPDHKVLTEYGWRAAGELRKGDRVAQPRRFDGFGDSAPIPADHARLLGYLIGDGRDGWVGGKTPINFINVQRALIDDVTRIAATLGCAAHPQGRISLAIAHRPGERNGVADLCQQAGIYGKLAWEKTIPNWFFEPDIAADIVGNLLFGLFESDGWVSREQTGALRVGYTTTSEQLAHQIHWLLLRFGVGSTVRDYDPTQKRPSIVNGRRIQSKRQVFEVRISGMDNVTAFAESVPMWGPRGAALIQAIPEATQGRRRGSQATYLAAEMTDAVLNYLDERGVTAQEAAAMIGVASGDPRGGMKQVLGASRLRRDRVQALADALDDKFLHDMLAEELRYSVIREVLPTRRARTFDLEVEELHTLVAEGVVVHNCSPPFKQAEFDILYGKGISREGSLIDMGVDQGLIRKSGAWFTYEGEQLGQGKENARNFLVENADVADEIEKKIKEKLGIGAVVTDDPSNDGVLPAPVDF
YopH PTP inh: YopH tyrosine phosphatase inhibitors, primary screen, biochemical, fluorescence Ex485/Em525; YopH tyrosine phosphatase [Yersinia enterocolitica]; 140,000 tested, 0.16% active; inhibition, %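 (about 10 µM by stock and volumes)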;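 active = inhibition of 50% or more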;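 also: controls were vehicle for no effect and minimum signal wells for full effect; inactives centre near -20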
Arbovirus anti repeat: also measured in Arbovirus anti; calls as there; inhibition, %; measured here: 10K subset replicate screen; many hits read low in the repeat;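 first of two repeat runs on a subset; 0% = infected and 100% = uninfected wells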
* marks the source's active call; other numbers are inactive results.

How did CC(NC(=O)C1CCN(S(=O)(=O)c2cc([N+](=O)[O-])ccc2Cl)CC1)c1ccccc1 (stereo not drawn) do in these assays?
Arbovirus anti: -2.0; Mtb betalactam: 0.0; Mtb growth: 2.6%; RecA intein inh: -1.8; YopH PTP inh: -26.0

How did Cc1ccc(C(=O)c2c3ccc([N+](=O)[O-])cc3[n+]([O-])n2CCC(N)=O)cc1 do in these assays?
Mtb betalactam: 81.0; RecA intein inh: -2.5

How did Cc1ccc(NC(=O)CSCC#N)cc1 do in these assays?
Arbovirus anti: -5.1; Mtb betalactam: 0.2; Mtb growth: -3.1%; RecA intein inh: -0.9; YopH PTP inh: -17.5

What do the screens show for `CCN(CC)C(=O)Cn1cc(/C=C2\C(=O)NC(=O)N(c3ccccc3F)C2=O)c2ccccc21`?
Mtb betalactam: 6.2; RecA intein inh: -1.6

Results for O=C1c2ccncc2C(=O)N1c1cccc(Cl)c1 ?
Arbovirus anti: -1.6; Mtb betalactam: -6.5; Mtb growth: -3.0%; RecA intein inh: -0.1

How did C=C(C)c1cccc(C(C)(C)NC(=O)NCC2CCCO2)c1 (stereo not drawn) do in these assays?
Arbovirus anti: 6.0; Mtb betalactam: 0.4; Mtb growth: 2.3%; RecA intein inh: 2.1; YopH PTP inh: -37.5; Arbovirus anti repeat: 1.7

How did COc1ccccc1C(=O)C1CCCN(Cc2cnc(C)s2)C1 (stereo not drawn) do in these assays?
Arbovirus anti: 2.5; Mtb betalactam: -10.3; Mtb growth: -0.4%; RecA intein inh: 1.9

What do the screens show for `C=CCn1c(SCC(=O)Nc2nccs2)nnc1-c1ccco1`?
Arbovirus anti: 0.2; Mtb betalactam: 1.4; Mtb growth: -3.1%; RecA intein inh: -0.6; YopH PTP inh: -14.4

How did CCC(C)[C@H](NC(=O)N1CCCCC1)C(=O)OC (stereo partly drawn) do in these assays?
Mtb betalactam: -9.8; Mtb growth: -3.2%; RecA intein inh: -1.3

What do the screens show for `COc1cc2c3nnc(-c4ccc(F)cc4)c-3cn(Cc3ccccc3)c2cc1OC`?
Arbovirus anti: -37.6; Mtb betalactam: 6.6; Mtb growth: 27.0%; RecA intein inh: -8.9; YopH PTP inh: 7.7

What do the screens show for `Cc1cccc(OCCCCCN2CCOCC2)c1`?
Mtb betalactam: -1.8; RecA intein inh: 0.1

How did Cc1cc(C(N)=O)c2ccccc2n1 do in these assays?
Arbovirus anti: 7.2; Mtb betalactam: -0.1; Mtb growth: 13.2%; RecA intein inh: -0.2; YopH PTP inh: -28.6

Results for CCC1=Nc2cc(C(=O)NCCCN3CCN(C)CC3)ccc2Sc2ccccc21 ?
Mtb betalactam: 6.7; RecA intein inh: 0.7

What do the screens show for `CCN(C(=O)c1ccc(N2CC3CC(C2)c2cccc(=O)n2C3)c(NC(=O)c2ccncc2)c1)c1cccc(C)c1` (stereo not drawn)?
Mtb betalactam: -2.2; RecA intein inh: 4.4

What do the screens show for `O=C(C[n+]1cc(-c2ccc(Cl)cc2)n2c1CCC2)Nc1nc(-c2ccc(F)cc2)cs1`?
Mtb betalactam: 96.5; Mtb growth: inconclusive

What do the screens show for `COc1ccc(/C=N/NC(=O)C2C3CCCCC32)cc1OC` (stereo not drawn)?
Arbovirus anti: -1.2; Mtb betalactam: 1.4; Mtb growth: 1.7%; RecA intein inh: 0.4

Results for O=C(O)CSCC(=O)Nc1ccccc1 ?
Mtb betalactam: -6.5; Mtb growth: -5.5%; RecA intein inh: 7.7; YopH PTP inh: 7.1

Results for Cc1ccc(NC(=O)C2CC(=O)N(C(C)C)C2)cc1Cl (stereo not drawn) ?
Arbovirus anti: 4.0; Mtb betalactam: -7.3; Mtb growth: -0.3%; RecA intein inh: 0.9

How did CC(C)NC(=O)c1nn(C)c2ccccc12 do in these assays?
Arbovirus anti: -1.1; Mtb betalactam: 4.9; Mtb growth: 3.3%; RecA intein inh: -0.8; YopH PTP inh: -19.7

What do the screens show for `COc1ccc(CCNC(=O)C(=O)c2c(C)[nH]c3ccccc23)cc1`?
Mtb betalactam: 9.7; RecA intein inh: -0.5

How did O=S(=O)(CCN1CCN(c2ccccn2)CC1)c1ccc(F)cc1 do in these assays?
Mtb betalactam: -1.9; Mtb growth: -6.2%; RecA intein inh: -1.3

How did CCOC(=O)c1ccc(NC(=O)Cn2nnc(-c3ccccc3C)n2)cc1 do in these assays?
Arbovirus anti: 17.3; Mtb betalactam: 88.1; Mtb growth: 1.7%; RecA intein inh: 2.8; YopH PTP inh: -13.4

What do the screens show for `COc1ccc(C(=O)NNC(=O)Cc2ccc([N+](=O)[O-])cc2)cc1`?
Arbovirus anti: 6.0; Mtb betalactam: 4.0; Mtb growth: -8.9%; RecA intein inh: 2.0; YopH PTP inh: -28.3

What do the screens show for `O=C(C1=C[C@H](c2ccc(C(F)(F)F)cc2)C[C@H](OCCCCO)O1)N1CCOCC1`?
Arbovirus anti: -1.3; Mtb betalactam: -2.5; Mtb growth: -6.3%; RecA intein inh: 1.9

Results for COc1ccc(CNC(=O)COC(=O)c2n[nH]c3ccccc23)cc1 ?
Arbovirus anti: -5.8; Mtb betalactam: 6.0; Mtb growth: 10.8%; RecA intein inh: 3.0; YopH PTP inh: -36.5

What do the screens show for `Fc1ccc(N2Cc3ccsc3C=N2)cc1`?
Arbovirus anti: -5.1; Mtb betalactam: -3.1; Mtb growth: 4.6%; RecA intein inh: -1.7

How did C/C(=N\NC(=O)c1ccc2c(c1)OCO2)c1cccnc1 do in these assays?
Mtb betalactam: -0.6; RecA intein inh: -3.7

Results for O=C(CCCc1ccccc1)Nc1cccc([N+](=O)[O-])c1 ?
Mtb betalactam: 5.3; RecA intein inh: 0.3

Results for Nc1c(C(=O)c2ccccc2)sc(Nc2ccccc2)c1S(=O)(=O)c1ccccc1 ?
Arbovirus anti: 1.2; Mtb betalactam: 6.9; Mtb growth: 8.9%; RecA intein inh: -4.3; YopH PTP inh: -24.2

Results for CCOc1ccc2nc(-c3ccc(OC)c(OC)c3)cc(C(=O)O)c2c1 ?
Arbovirus anti: 6.2; Mtb betalactam: -11.9; Mtb growth: -4.2%; RecA intein inh: -3.4; YopH PTP inh: -0.3

Results for CCOC(=O)c1c(C)n(CC(O)CN(C)C)c2cc(Br)c(OC)cc12 (stereo not drawn) ?
Arbovirus anti: -11.8; Mtb betalactam: 20.6; Mtb growth: 3.2%; RecA intein inh: -1.2

What do the screens show for `CC(C)(C)c1nnc(NC(=O)NS(=O)(=O)c2ccccc2)s1`?
Arbovirus anti: 6.6; Mtb betalactam: 0.0; Mtb growth: -3.2%; RecA intein inh: -3.5; YopH PTP inh: -42.0

How did CCN(CC)C(=O)CSc1nnc(-c2ccco2)n1N do in these assays?
Arbovirus anti: 2.3; Mtb betalactam: 3.4; Mtb growth: -4.8%; RecA intein inh: -1.8; YopH PTP inh: -11.3

What do the screens show for `CCc1[nH]nc(C(=O)N2CCCC(CNS(=O)(=O)c3cccs3)C2)c1C` (stereo not drawn)?
Arbovirus anti: 4.9; Mtb betalactam: -3.0; Mtb growth: -3.5%; RecA intein inh: 4.0

What do the screens show for `O=C(/C(=N\Nc1ccc([N+](=O)[O-])cc1)Sc1nnnn1-c1ccccc1)c1ccccc1`?
Arbovirus anti: 17.4; Mtb betalactam: 11.1; Mtb growth: 9.3%; RecA intein inh: -0.8; YopH PTP inh: 12.1

How did O=C(Nc1ccc2nc3n(c(=O)c2c1)CCCCC3)c1ccccn1 do in these assays?
Arbovirus anti: 0.6; Mtb betalactam: -2.8; Mtb growth: -8.7%; RecA intein inh: 0.1; YopH PTP inh: -21.2; Arbovirus anti repeat: -4.4

How did CC1Sc2ccc(S(=O)(=O)CCC(=O)N(C)Cc3ccccc3)cc2NC1=O (stereo not drawn) do in these assays?
Mtb betalactam: 1.3; RecA intein inh: -1.6

What do the screens show for `COc1ccc(NC(=O)NCCC2=CCCCC2)cc1`?
Arbovirus anti: 2.1; Mtb betalactam: -2.3; Mtb growth: 5.7%; RecA intein inh: -0.1

How did O=[N+]([O-])c1ccc(N2CCN(CCOc3nonc3-c3ccccc3)CC2)c(Cl)c1 do in these assays?
Arbovirus anti: 5.7; Mtb betalactam: -0.4; Mtb growth: -9.5%; RecA intein inh: 6.5; YopH PTP inh: -22.9

How did CCCCc1ccc(NC(=O)Nc2cnccn2)cc1 do in these assays?
Mtb betalactam: 24.9; RecA intein inh: -1.1

How did Cc1ccc2c(Cl)cc(Cl)c(OCC(=O)OCC(=O)Nc3ccc(C#N)cc3)c2n1 do in these assays?
Arbovirus anti: -2.6; Mtb betalactam: -15.8; Mtb growth: -3.2%; RecA intein inh: 1.8; YopH PTP inh: -41.8

How did COc1ccc(C(=O)N/C(=C\c2ccc3c(c2)OCO3)C(=O)NCCc2nc3ccccc3[nH]2)cc1 do in these assays?
Arbovirus anti: 6.7; Mtb betalactam: 1.9; Mtb growth: 0.6%; RecA intein inh: -4.9; YopH PTP inh: -10.0

What do the screens show for `CCCCCCc1cc2cc(S(=O)(=O)c3ccc(C)cc3)c(=O)oc2cc1O`?
Arbovirus anti: 9.9; Mtb betalactam: -1.1; Mtb growth: -4.3%; RecA intein inh: -19.3; YopH PTP inh: -24.1

How did CCOc1ccc(/C=N/NC(=O)Cc2cccs2)cc1 do in these assays?
Mtb betalactam: -5.3; Mtb growth: -3.8%; RecA intein inh: 0.9

How did CCC(Sc1nc2ncccc2[nH]1)C(=O)NC1CCC(C)CC1 (stereo not drawn) do in these assays?
Mtb betalactam: 6.3; RecA intein inh: 3.1

How did O=C(Cc1cn2ccsc2n1)NCCc1ccc(F)cc1 do in these assays?
Arbovirus anti: -4.2; Mtb betalactam: -11.9; Mtb growth: -12.0%; RecA intein inh: 1.0; YopH PTP inh: -37.2

How did CCOCCCN1CN(Cc2ccccc2)CNC1=S do in these assays?
Arbovirus anti: -10.5; Mtb betalactam: 4.0; Mtb growth: 0.5%; RecA intein inh: -2.4; YopH PTP inh: -13.0

What do the screens show for `Cc1ccc2nc(-c3cccc(N)c3)oc2c1`?
Arbovirus anti: -6.4; Mtb betalactam: 99.0; Mtb growth: 12.7µM*; RecA intein inh: 3.0; YopH PTP inh: 9.6

How did CCc1ccc(OCC(=O)NCCN(C)C)c(Br)c1 do in these assays?
Arbovirus anti: 6.6; Mtb betalactam: -3.9; Mtb growth: 0.8%; RecA intein inh: 1.3; YopH PTP inh: -30.2

How did O=[N+]([O-])c1ccc2[nH]c(O)c(N=NC(=S)Nc3cccnc3)c2c1 do in these assays?
Mtb betalactam: 1.0; Mtb growth: 0.1%; RecA intein inh: 0.9

How did CC(C)=NNC(=O)C1=NNC(=O)C1 do in these assays?
Mtb betalactam: 2.7; Mtb growth: -1.6%; RecA intein inh: -4.5

What do the screens show for `Cc1ccccc1OCC(=O)O/N=C(\N)c1ccncc1`?
Mtb betalactam: 4.2; RecA intein inh: 1.6

Results for COc1ccc(C(=O)c2c3ccccc3[n+]([O-])n2CCCN)cc1 ?
Mtb betalactam: -1.1; RecA intein inh: 4.3

What do the screens show for `COc1cc(OC)cc(C(=O)NNC(=O)C(=O)Nc2cc(OC)c(Cl)cc2OC)c1`?
Mtb betalactam: 13.3; RecA intein inh: 1.6

How did Cc1ccc(C)c2[nH]c(=O)c(CN(Cc3nnnn3C3CCCCC3)CC3CCCO3)cc12 (stereo not drawn) do in these assays?
Arbovirus anti: 8.1; Mtb betalactam: -0.5; Mtb growth: -3.1%; RecA intein inh: 6.8; YopH PTP inh: 5.6

How did C=CCOc1ccc(CN(C)CC(=O)N(CC(C)C)c2c(N)n(CC(C)C)c(=O)[nH]c2=O)cc1 do in these assays?
Arbovirus anti: -1.6; Mtb betalactam: -4.2; Mtb growth: 0.8%; RecA intein inh: -1.2; YopH PTP inh: -24.4

Looked up by structure from the list above (2):
How did O=[N+]([O-])c1ccc2[nH]c(O)c(N=NC(=S)Nc3cccnc3)c2c1 do in these assays?
Mtb betalactam: 1.0; Mtb growth: 0.1%; RecA intein inh: 0.9

How did CCC(Sc1nc2ncccc2[nH]1)C(=O)NC1CCC(C)CC1 (stereo not drawn) do in these assays?
Mtb betalactam: 6.3; RecA intein inh: 3.1

Structural class: the compounds so far with a cyano group (2)
How did Cc1ccc(NC(=O)CSCC#N)cc1 do in these assays?
Arbovirus anti: -5.1; Mtb betalactam: 0.2; Mtb growth: -3.1%; RecA intein inh: -0.9; YopH PTP inh: -17.5

How did Cc1ccc2c(Cl)cc(Cl)c(OCC(=O)OCC(=O)Nc3ccc(C#N)cc3)c2n1 do in these assays?
Arbovirus anti: -2.6; Mtb betalactam: -15.8; Mtb growth: -3.2%; RecA intein inh: 1.8; YopH PTP inh: -41.8

Source: PubChem BioAssay (several laboratories)

A portion of the library; count on the stated rates, not on these rows.
